Screening data as filed in PubChem.
PrP UTR inh: inhibition of PrP 5' UTR reporter expression; cell-based PrP 5' UTR mRNA reporter, plate reader; inhibition, % (test concentration not listed); 0.35% of 340,000 active; AID 488862;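 active = every replicate at 50% or more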;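 also: 0 = median of the neutral control wells; tested in H4 reporter cells; numbers are from one replicate; inactives centre near -14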
Mtb hypoxia inh: reduces hypoxia-regulated biosensor signal in M. tuberculosis; M. tuberculosis hypoxia-regulated fluorescent reporter, fluorescence; 0.1% of 300,000 active; AID 1159583; fluorescence inhibition, % (concentration not given with the values);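 active = 35 to 45% if threefold the growth effect, above 45% if 1.5-fold the growth effect; inactive = the rest, general growth blockers included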;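 also: wells of about 50 µL received 100 nL stock; 0% = vehicle wells and 100% = reference inhibitor wells; whole bacteria with a GFP reporter of the hypoxia response; strong numbers were not always called active; many hits fall short of the cut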
Sa RN4220 lethal: kills Staphylococcus aureus RN4220; 0.33% of 330,000 active; inhibition, % (no concentration beside the values); S. aureus RN4220 growth, OD600, 16 h; AID 1259311;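 active = z-score of -3 or lower and OD600 up to 0.18 on both plates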;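 also: plate controls were untreated cells for no effect and reference antibiotic for full effect; stock transfer was 100 nL into about 80 µL; one replicate is shown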
BJeLR viability: BJeLR cell viability loss | BJeLR (HRASV12) viability, CellTiter-Glo ATP luminescence, 48 h; reference of the scale not given here | inhibition, % (test concentration not listed) | 0.17% of 300,000 active | AID 1554;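 active = replicate mean above 50%; inconclusive = above 50% but judged a plate artefact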;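 also: 50 nL library stock added to about 25 µL; numbers are from one replicate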
Autofluor counter: counter-screen for toxin protease inhibitors: compound fluorescence; compound autofluorescence counterscreen, microsphere flow cytometry; hits give high values; 3.1% of 360,000 active; fluorescence intensity (test concentration not listed);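 active = at least 3 SD above the mean of all compounds, about 16000 in these data; inconclusive = too few beads counted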;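 also: 100 nL of 1 mM stock went into each well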
ugtP null kill: growth inhibition of S. aureus ugtP deletion strain; 0.54% of 330,000 active; S. aureus RN4220 ugtP deletion, OD600 growth, 16 h; some inactives read as strong as hits; growth inhibition, % (concentration not given with the values);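 active = z-score under -3 and OD600 up to 0.15 on both plates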;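 also: plate controls were untreated wells for no effect and antibiotic for full effect; wells of about 80 µL received 100 nL stock; the first replicate is given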
Mtb hypoxia inh growth: recorded beside Mtb hypoxia inh, whose call it bears; growth inhibition, %; measured here: M. tuberculosis growth (absorbance);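 0% = vehicle and 100% = reference antibiotic; read after six days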
Starred values were filed as active, the others as inactive; ? = inconclusive; . = no result given.

Start of the listing, in advance:
SMILES	PrP UTR inh	Mtb hypoxia inh	Mtb hypoxia inh growth	Sa RN4220 lethal	BJeLR viability	Autofluor counter	ugtP null kill
CC(=O)OC1c2c(ccc3ccc(=O)oc23)OC(C)(C)C1OC(=O)CC(C)C (configuration not stated)	-6.0	-7.4	-0.9	0.1	.	5451	-4.6
CCOC(=O)CCCCCC(=O)Nc1ccc2c(c1)C(=O)N([C@H](C)CO)C[C@@H](C)[C@H](CN(C)Cc1ccc3c(c1)OCO3)O2	-25.1	-0.3	16.0	-11.2	.	3727	-7.1

This part in full, repeating the preview:
SMILES	PrP UTR inh	Mtb hypoxia inh	Mtb hypoxia inh growth	Sa RN4220 lethal	BJeLR viability	Autofluor counter	ugtP null kill
CC(=O)OC1c2c(ccc3ccc(=O)oc23)OC(C)(C)C1OC(=O)CC(C)C (configuration not stated)	-6.0	-7.4	-0.9	0.1	.	5451	-4.6
CCOC(=O)CCCCCC(=O)Nc1ccc2c(c1)C(=O)N([C@H](C)CO)C[C@@H](C)[C@H](CN(C)Cc1ccc3c(c1)OCO3)O2	-25.1	-0.3	16.0	-11.2	.	3727	-7.1
COc1ccc(NS(=O)(=O)c2cc(N=Nc3c(O)[nH]c(=O)[nH]c3=O)ccc2Cl)cc1	-2.0	4.5	7.5	3.6	.	2846	0.1
O=C(NCc1ccccc1)C1CC(=O)N(c2ccc(OCC(=O)N3CCCC3)cc2)C1 (configuration not stated)	1.3	8.3	6.6	-6.3	-3.7	2774	-3.0
COc1ccc(C2NC(=O)CS2)cc1 (configuration not stated)	-0.5	.	.	-4.4	.	4750	-6.7
Cc1ccc(CON=Cc2c(O)cc(C)oc2=O)cc1	.	4.3	3.0	4.1	.	.	1.1
C[C@@H](NC(=O)c1cc2c([nH]c3ccccc32)c(-c2ccccc2)n1)C(=O)O	-0.3	-8.3	19.9	9.6	-21.7	3535	-8.5
COc1ccc(COc2cc(-c3cccc(OC)c3)nc3ccc(NC(=O)c4cccnc4)cc23)cc1	-11.3	-9.0	0.0	-3.4	-9.4	4435	-9.8
c1ccn2cc(C34CC5CC(CC(C5)C3)C4)nc2c1	-7.3	14.6	11.3	3.6	16.9	3915	9.4
CCOc1ccc2nc(NC(=O)c3ccc(S(=O)(=O)N4CCOCC4)cc3)sc2c1	6.0	3.5	0.6	6.8	2.1	9008	-3.9
CN(c1ccccc1)S(=O)(=O)c1cccc(NC(=O)Cc2c(F)cccc2Cl)c1	-3.6	-0.4	1.9	5.4	1.4	2399	-3.2
Cc1ccc(C(=O)NCc2nnc(SCC(=O)Nc3ccccc3)n2C)cc1	-5.3	4.5	8.8	2.5	-1.4	2168	5.0
C=C(C)C(=O)Nc1cccc(C2=NOC3(C2)CC(C(N)=O)N(C(=O)c2ccc(Cl)cc2)C3)c1 (configuration not stated)	.	3.4	-0.6	9.4	.	.	1.5
Clc1ccc(-n2nnnc2SCc2cn3ccccc3n2)cc1	-17.8	11.7	17.3	2.9	-8.2	2977	6.8
c1ccc(COc2ccc(Oc3nc(N4CCCCC4)nc(N4CCOCC4)n3)nn2)cc1	-19.3	12.3	-2.0	2.8	2.5	11833	6.0
Cc1ccc2[nH]c(=O)c(CN(Cc3ccc4c(c3)OCO4)Cc3nnnn3Cc3ccco3)cc2c1	8.9	.	.	0.1	-2.0	2744	-13.7
COc1ccc(CCN2C(=O)/C(=C\c3ccco3)SC2=S)cc1OC	-21.9	6.2	6.9	2.3	-1.3	2695	-6.4
O=C(NNc1nc(-c2ccc(Cl)cc2)cs1)c1ccco1	-25.7	-0.2	-1.8	1.1	-0.9	1941	17.7
COc1cc(CC(=O)OCC(=O)N2CC(=O)Nc3ccccc32)cc(OC)c1OC	-14.1	10.0	4.2	3.4	-1.8	4181	2.6
O=C(NCc1cccs1)c1cnc2ccccn2c1=O	-21.0	2.7	3.2	3.3	-12.1	11146	9.3
CCCNC(=O)C(Cc1ccccc1)NC(=O)c1cccc([N+](=O)[O-])c1 (configuration not stated)	-29.4	9.3	9.1	8.4	.	2965	3.0
O=C(O)C1C(c2ccccc2)C(C(=O)OCCCO)C1c1ccccc1 (configuration not stated)	-18.4	-0.1	1.5	6.2	8.6	22890*	2.9
CCCn1ncc(CN2CCC(N3CCC(C(=O)N4CCOCC4)CC3)CC2)c1C	-49.2	1.9	4.3	11.7	-33.4	3414	3.1
CCOC(=O)c1ccc(NC(=O)N2CCN(Cc3ccccc3)CC2)cc1	-28.3	8.3	-5.6	0.6	-12.7	1997	-0.8

Four entries out of the list, arranged by molecular weight, smallest number first:
SMILES	PrP UTR inh	Mtb hypoxia inh	Mtb hypoxia inh growth	Sa RN4220 lethal	BJeLR viability	Autofluor counter	ugtP null kill
COc1cc(CC(=O)OCC(=O)N2CC(=O)Nc3ccccc32)cc(OC)c1OC	-14.1	10.0	4.2	3.4	-1.8	4181	2.6
c1ccc(COc2ccc(Oc3nc(N4CCCCC4)nc(N4CCOCC4)n3)nn2)cc1	-19.3	12.3	-2.0	2.8	2.5	11833	6.0
C=C(C)C(=O)Nc1cccc(C2=NOC3(C2)CC(C(N)=O)N(C(=O)c2ccc(Cl)cc2)C3)c1 (configuration not stated)	.	3.4	-0.6	9.4	.	.	1.5
Cc1ccc2[nH]c(=O)c(CN(Cc3ccc4c(c3)OCO4)Cc3nnnn3Cc3ccco3)cc2c1	8.9	.	.	0.1	-2.0	2744	-13.7

Rewritten as labelled records: two of the compounds above
> C=C(C)C(=O)Nc1cccc(C2=NOC3(C2)CC(C(N)=O)N(C(=O)c2ccc(Cl)cc2)C3)c1 (configuration not stated)
- PrP UTR inh = .
- Mtb hypoxia inh = 3.4
- Mtb hypoxia inh growth = -0.6
- Sa RN4220 lethal = 9.4
- BJeLR viability = .
- Autofluor counter = .
- ugtP null kill = 1.5
> O=C(NCc1cccs1)c1cnc2ccccn2c1=O
- PrP UTR inh = -21.0
- Mtb hypoxia inh = 2.7
- Mtb hypoxia inh growth = 3.2
- Sa RN4220 lethal = 3.3
- BJeLR viability = -12.1
- Autofluor counter = 11146
- ugtP null kill = 9.3

(further entries)
SMILES	PrP UTR inh	Mtb hypoxia inh	Mtb hypoxia inh growth	Sa RN4220 lethal	BJeLR viability	Autofluor counter	ugtP null kill
COc1cc(C2CC(=O)N(c3ccc(C)cc3)C(=O)C2)cc(OC)c1OC	-38.1	7.9	-1.5	4.8	1.0	4095	-0.2
O=C1COc2ccc(S(=O)(=O)Nc3ccc4c(c3)OCO4)cc2N1	-19.3	15.9	2.1	8.2	-4.2	4524	8.0
COCc1cc(C)nc(SCc2ccc(F)cc2)c1C#N	-21.8	11.2	11.8	3.2	-15.7	3167	12.9
CCCCCCOC(=O)C(C#N)c1nc2ccccc2nc1N1CCN(C)CC1 (configuration not stated)	-16.4	-8.4	17.0	0.1	-12.8	8819	-11.1
COc1ccc(-c2nn3c(-c4ccco4)nnc3s2)cc1OC	3.0	.	.	6.8	7.4	4764	-2.8
CCOC(=O)C(C(=O)OCC)C(Nc1ccccc1)c1ccccc1 (configuration not stated)	-30.4	3.6	6.2	2.5	-4.7	2529	2.1
O=C(COC(=O)c1ccc(F)c(S(=O)(=O)N2CCOCC2)c1)NCc1ccc(F)cc1	-17.2	4.8	2.9	3.0	.	3105	7.2
Cc1nonc1CC(=O)NC1CCCc2c1cnn2-c1ccc(F)cc1F (configuration not stated)	-2.6	.	.	.	11.5	5586	.
CCN(CC)C(=O)CSc1nnc2sc3ccccc3n12	-24.4	1.3	4.0	4.2	10.3	19933*	7.1
COc1cccc(NC(=O)NCC2CCN(Cc3ccc(F)cc3)CC2)c1	-27.4	9.0	-3.8	2.5	-8.3	4467	5.0
CS(=O)(=O)c1ccc(N)cc1	0.3	.	.	-0.3	-1.7	5814	5.6
CS(=O)(=O)N(CC(=O)NCC1CCCO1)c1cc(Cl)cc(Cl)c1 (configuration not stated)	-9.2	4.2	5.1	3.4	-4.7	11548	5.7
O=c1oc2ccc(Br)cc2cc1S(=O)(=O)c1ccc(F)cc1	-17.9	4.0	10.2	1.7	4.5	2000	6.0
O=C(NCc1ccncc1)C(=O)NN=Cc1cccnc1	.	6.0	5.5	1.8	.	.	10.2
CCN(CC)CCNC(=S)Nc1ccc2nc(N3CCN(C)CC3)cc(C)c2c1	-19.3	-7.5	7.0	5.2	11.0	3779	11.2
N#CCCn1cc(/C=N/NC(N)=S)c(-c2ccccc2)n1	-23.3	.	.	.	2.1	3220	.
Cc1cccn2c(=O)c(C(=O)NC3CC(C)CC(C)(C)C3)c(O)nc12 (configuration not stated)	-0.5	0.7	8.8	10.2	-6.7	?	13.0
COc1ccc(CCNC(=O)C2CCC(=O)N2CCc2ccccc2)cc1OC (configuration not stated)	-28.5	9.1	11.1	3.0	7.9	4502	8.8
CCOC(=O)c1ccc(NC(=O)N2CCN(Cc3cccc(F)c3)CC2)cc1	-46.2	-7.6	12.4	-0.3	12.8	10004	-6.7
CN(C)S(=O)(=O)c1ccc(C(=O)OCC2COC(C)(C)O2)cc1 (configuration not stated)	-19.1	12.9	9.6	2.4	-3.9	3570	2.2
Cc1nc(Cl)sc1C(=O)Nc1cc(F)cc(F)c1	-25.8	16.1	3.2	5.3	25.1	4159	-0.7
O=C(CN1CCN(S(=O)(=O)c2cccc(Br)c2)CC1)NCCc1cccs1	-1.2	-7.5	9.8	6.2	.	4016	-3.5
O=C(COC(=O)c1cc[n+]([O-])cc1)NCCc1ccc(Cl)cc1Cl	-9.3	1.6	-10.7	1.6	-2.3	4919	3.6
O=C(/C=C/c1ccccc1)OCC(=O)c1ccc[nH]1	-36.5	5.7	-1.0	6.2	-8.7	5601	-8.0
CN(C)S(=O)(=O)c1ccc(C(=O)NCc2nnc(SCC(=O)c3ccccc3)o2)cc1	0.1	-4.7	3.4	1.3	8.2	12506	0.7
COC(=O)C1=C(c2ccc(OC(F)(F)F)cc2)CC2CCC1N2C(=O)N1CCCC1 (configuration not stated)	.	-3.0	5.4	-8.4	.	.	-8.6
Cc1nn(C(C)C(=O)NCC2CCCO2)c(=O)c2c1sc1ccccc12 (configuration not stated)	9.7	2.3	7.6	2.3	2.7	5686	1.5
Cc1nn(CC(N)=O)c(=O)c2ccccc12	-13.1	-3.3	-3.2	3.4	-0.7	2840	-5.2
CCOC(=O)N1CCN(C(=O)C(=O)Nc2sc3c(c2C(=O)O)CC(C)(C)OC3)CC1	2.9	-4.1	9.9	-2.4	7.7	5984	-2.8
CCOc1c(Cl)cnn(-c2ccc(C)cc2)c1=O	-20.2	.	.	-3.0	6.9	2642	6.9
CCOc1ccc2[nH]c(=O)c(CN(CCN3CCCC3)C(=S)Nc3ccccc3OCC)cc2c1	-35.7	3.6	4.9	-1.0	11.3	6318	5.6
CCOC(=O)CSc1ncc(-c2ccccc2)nn1	-23.3	-0.2	-0.6	4.7	-7.6	7443	3.8
COc1ccc(-c2cc(C(F)(F)F)n3ncc(C(=O)NCC4CCCO4)c3n2)cc1OC (configuration not stated)	-2.7	.	.	.	-11.8	2487	.
O=C(CCCCCn1nnc2ccccc2c1=O)Nc1ccccc1F	-12.9	2.0	-5.3	2.5	7.8	3836	-0.5
COc1ccc(C(c2nnnn2C(C)C)N2CCN(C(=O)c3ccco3)CC2)cc1 (configuration not stated)	4.2	-2.0	-5.6	7.4	10.0	2993	5.6
COc1ccc(-c2cn3cccnc3n2)cc1NC(=O)C1CC1	-11.4	4.5	6.9	4.7	0.7	8365	-1.2
Cc1ccc(S(=O)(=O)NCC(=O)N(CC2CCCO2)C(C(=O)NC2CCCC2)C(C)C)cc1 (configuration not stated)	-26.4	1.0	2.9	1.7	-11.6	5063	4.3
Clc1ccc(-c2csc(N/N=C/c3ccco3)n2)cc1	-55.3	.	.	.	6.7	3611	.
COc1ccccc1NC(=O)CN1C(=O)C(C)Oc2ccccc21 (configuration not stated)	4.1	1.0	10.2	0.3	-13.9	22685*	-2.0
COc1ccccc1NS(=O)(=O)c1ccc(O)c(C(=O)OCc2cccc([N+](=O)[O-])c2)c1	-24.0	13.5	9.1	10.5	1.4	2900	-2.7
CCOc1ccccc1NC(=O)C1COc2ccccc2O1 (configuration not stated)	-12.8	7.7	1.0	1.9	-2.9	3249	3.9

Structures listed so far with bromine (2):
SMILES	PrP UTR inh	Mtb hypoxia inh	Mtb hypoxia inh growth	Sa RN4220 lethal	BJeLR viability	Autofluor counter	ugtP null kill
O=c1oc2ccc(Br)cc2cc1S(=O)(=O)c1ccc(F)cc1	-17.9	4.0	10.2	1.7	4.5	2000	6.0
O=C(CN1CCN(S(=O)(=O)c2cccc(Br)c2)CC1)NCCc1cccs1	-1.2	-7.5	9.8	6.2	.	4016	-3.5
